Assay outcomes from PubChem BioAssay.
Sa growth inh – S. aureus growth inhibition. S. aureus RN4220 growth, OD600, 20 h, 42 °C; stronger effect = lower value. relative growth, % (concentration not given with the values). 0.53% of 170,000 active;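 active = growth at 42 °C up to 50% and 20 or more points under that at 30 °C, or under 10% at both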;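 note: 300 nL library stock went into each well; scaled to the means of positive and negative controls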
GIV-Gai inh – blocks GIV peptide binding to rat Galpha-i3. P08753. Galpha-i3/FITC-GIV peptide fluorescence polarization, 90 min; stronger effect = lower value; scaled: aluminum fluoride 0%, vehicle 100%. percent of control (FP), % (no concentration beside the values). 0.42% of 210,000 active. AID 1224905;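 active = replicate mean at 85% of control or lower, very high polarization wells dropped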;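 note: wells of about 15 µL received 100 nL stock; the first replicate is given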
Target sequence (P08753 whole entry, looked up): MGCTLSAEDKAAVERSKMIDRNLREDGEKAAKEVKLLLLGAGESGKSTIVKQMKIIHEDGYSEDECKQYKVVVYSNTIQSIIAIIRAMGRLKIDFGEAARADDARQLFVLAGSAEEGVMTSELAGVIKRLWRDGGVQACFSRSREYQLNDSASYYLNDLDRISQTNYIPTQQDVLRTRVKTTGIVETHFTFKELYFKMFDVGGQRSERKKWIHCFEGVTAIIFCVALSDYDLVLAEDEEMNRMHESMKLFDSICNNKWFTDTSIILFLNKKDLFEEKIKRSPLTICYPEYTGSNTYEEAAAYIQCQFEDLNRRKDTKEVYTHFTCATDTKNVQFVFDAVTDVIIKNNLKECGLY
HCMV NEC inh – cytomegalovirus nuclear egress complex inhibition; HTRF UL50-UL53 interaction, normalized percent inhibition; 0.15% of 190,000 active; inhibition, % (no concentration beside the values);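 active = both replicates at 50% or more, plus weaker picks with an unusually low signal ratio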;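 note: stock transfer was 100 nL into about 20 µL; 0% = negative control wells and 100% = wells with untagged competitor protein; inactives centre near -12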
Sa growth inh second temp – recorded beside Sa growth inh, whose call it bears; relative growth, %; measured here: growth at 30 °C;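 optical density after 20 h as mean of two plates; 100% = untreated growth and lower means inhibition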
* marks the source's active call; other numbers are inactive results; · = not tested or not shown; & = joins results of further samples.

A first look (3 entries):
SMILES	Sa growth inh	Sa growth inh second temp	GIV-Gai inh	HCMV NEC inh
N#CC(C#N)=CNc1c(F)cccc1Cl	59	15	107	-27
Cc1ccc2c(c1)N(C(=O)CN1C=NS(=O)(=O)c3ccccc31)CCO2	108	105	110	2
CCc1noc(C)c1C(=O)Nc1ccc(OC(F)F)cc1	85	88	·	-20

Main list, from the start:
SMILES	Sa growth inh	Sa growth inh second temp	GIV-Gai inh	HCMV NEC inh
N#CC(C#N)=CNc1c(F)cccc1Cl	59	15	107	-27
Cc1ccc2c(c1)N(C(=O)CN1C=NS(=O)(=O)c3ccccc31)CCO2	108	105	110	2
CCc1noc(C)c1C(=O)Nc1ccc(OC(F)F)cc1	85	88	·	-20
CC(C)NC(=O)CCCCn1c(=O)c2ccccc2n(CC(=O)NCCc2ccccc2)c1=O	·	·	106	-19
O=C(OCCCCN1C(=O)c2ccccc2C1=O)c1ccc(Br)o1	100	85	·	-16
Cc1nc2c(c(C)nn2-c2ccccc2)c(C)c1CCC(=O)NC(C)c1ccccc1 (stereo unspecified)	98	92	100	8
CN1CCCc2cc(C#N)c(=O)[nH]c21	120	112	103	-2
Cc1ccc(C(=O)OCC(=O)NC2CCCC2)cc1	113	93	·	9
CS(=O)c1scc2c1C(=O)CC(C)(C)C2 (stereo unspecified)	99	92	108	-58
Cc1oc(-c2ccccc2)nc1CSc1nc2ccccc2n2c(C(C)C)nnc12	·	·	110	-37
O=C(NC1CCN(Cc2ccccc2)C1)c1nn(-c2ccccc2)c(=O)c2ccccc12 (stereo unspecified)	77	74	·	-37
CC/C(=N\NC(=O)c1cccnc1)c1cc(F)ccc1O	127	82	·	-27
Cc1ccc(N=Cc2ccc(F)c(F)c2)cc1C	104	73	·	-23
O=C1CC(c2ccccc2)Cc2nc(N3CCc4ccccc43)ncc21 (stereo unspecified)	94	97	103	-19
COC(=O)c1c[nH]n2c(=O)cc(C3CCNCC3)nc12	93	89	104	-32
O=C(Cn1c2ccccc2c(=O)c2cc(Cl)ccc21)Nc1ccc(Oc2ccccc2)cc1	·	·	109	-17
O=C(O)CCC(=O)Nc1cccc(F)c1	104	83	105	-30
CCCN1C(C(=O)c2ccccc2)=C(OC(=O)c2ccc(OC)cc2)c2ccccc2S1(=O)=O	106	88	108	-17
Cc1c(C(=O)N2CCC(C)CC2)c(S(=O)(=O)N2CCN(c3cccc(Cl)c3)CC2)c(C)n1C	66	48	101	·
COc1ccc(C2=C(C)C(=O)N(Cc3ccc(C(=O)NCc4cccc(C)c4)cc3)S2(=O)=O)cc1	105	104	108	·
COc1nnc(Cl)c2ccccc12	80	76	102	-8
O=C1NC(c2ccccc2)Oc2ccccc21 (stereo unspecified)	68	92	108	-6
O=c1c2sc3ccccc3c2n(Cc2cccc(Cl)c2)c(=O)n1Cc1ccccn1	·	·	108	1
O=C(O)C1CN(CCCP(=O)(O)O)CCN1 (stereo unspecified)	·	·	105	-1
CCN1CCN(c2cc(C(=O)O)c3cc(NS(=O)(=O)c4ccc(F)cc4)ccc3n2)CC1	·	·	97	-34
Cc1ccc(/C=N/c2sc3c(c2C(N)=O)CCC3)s1	99	95	·	-2
Cc1ccc(-c2noc(CN(C(C)C)S(=O)(=O)c3ccc(F)cc3)n2)cc1	113	102	97	4
COC(=O)c1cc2c(cc1NC(=O)c1cccc3c1SCCC3=O)OCO2	117	88	113	-1
COc1ccc(NC(=O)Cc2c(C(=O)O)[nH]c3ccccc23)c(OC)c1	83	71	105	-8
COc1ccc(C(=O)Nc2ccc(OCc3cc(=O)n4ccccc4n3)cc2)cc1	105	95	107	·
Cc1ccc2[nH]c(=O)cc(C(=O)O)c2c1	79	115	103	25
O=C(O)CCCC(=O)Nc1ccc(C(=O)O)cc1	78	87	106	-6
O=C(NCCc1ccccc1)c1ccc2nc(-c3cccs3)c(-c3cccs3)nc2c1	92	80	103	·
CCOC(OCC)c1ccc(/C=C(\C#N)S(=O)(=O)c2ccccn2)cc1	98	82	99	-7
c1ccc(-c2noc(CSc3nnc(-c4ccco4)n3-c3ccccc3)n2)cc1	87	83	104	-5
Cc1ccccc1C(=O)Nc1cnc2ccccn2c1=O	·	·	105	-72
CCc1ccc(NC(=O)CN2C(=O)CSc3ccc(S(=O)(=O)N(C)C)cc32)cc1	102	76	99	·
Cc1cc(NC(=O)c2cc(-c3ccc4c(c3)OCO4)on2)no1	124	91	100	-2
COc1ccc(OC)c(CNC(=O)Cn2nc(C)c3c(C)n(-c4ccccc4)nc3c2=O)c1	93	87	104	·
O=c1oc2ccccc2cc1-c1ccc(Cl)cc1	86	97	·	-3
CCC(=O)N1CCCC1c1nc2ccccc2n1CCOc1ccccc1OC (stereo unspecified)	·	·	108	-6
COC(=O)c1sccc1NS(=O)(=O)c1ccc(C(=O)OC)n1C	94	88	102	-9
Cc1ccc(C2(C(F)(F)F)NC(=O)N3CCN=C3S2)cc1 (stereo unspecified)	96	97	91	21
COc1ccc(C(=S)NCC2CCCO2)cc1 (stereo unspecified)	95	86	110	0
O=C1CCOc2ccc(Cl)cc21	101	94	103	-18
COc1ccc(C)cc1NC(=O)c1c(C)nc2ccccn12	117	99	107	-17
CC(C)CCC(=O)Nc1ccc(S(=O)(=O)N2C(C)CCCC2C)cc1 (stereo unspecified)	67	83	·	-22
Cc1ccc(NC(=O)C(Cc2ccccc2)NS(=O)(=O)c2ccc3c(c2)oc(=O)n3C)c(Cl)c1 (stereo unspecified)	96	94	95	-12
CCc1cc(C(=O)NCCN(C)C)cs1	104	110	108	-3
COc1ccc(CC2SC(=Nc3ccc(Cl)cc3)NC2=O)cc1 (stereo unspecified)	·	·	99	-17
COc1ccc(C)cc1S(=O)(=O)Nc1ccccc1	105	108	101	6
Cn1cnc2c1c(=S)[nH]c(=O)n2Cc1ccccc1	79	63	·	-63
CC1(C)Cc2snc(C(N)=O)c2C1	110	82	·	-24
CC(C)(C)c1ccc(OCC(=O)NC(Cc2c[nH]c3ccccc23)C(=O)O)cc1 (stereo unspecified)	104	102	104	-10
Cc1oc(C)c2c(=O)cc(-c3ccc4c(c3)OCO4)cc(OC(=O)c3ccccc3Cl)c12	102	92	110	-9
CCOC(=O)c1sc(N)c(C#N)c1COC(=O)C12CC3CC(CC(O)(C3)C1)C2	98	76	·	-30
CC(=O)c1ccc(Nc2cc(C)nc3nc(Cc4ccccc4)nn23)cc1	94	82	104	-34
COc1ccccc1N1C(=O)C2C3C=CC(O3)C2C1=O (stereo unspecified)	·	·	101	-22
Cc1noc(-c2ccc3c(c2)OCO3)c1I	97	90	·	-24
O=C(CNCc1ccco1)Nc1ccccc1C(=O)c1ccccc1	104	95	·	-9

Record cards (already shown). Values in the order: Sa growth inh, Sa growth inh second temp, GIV-Gai inh, HCMV NEC inh
`COc1ccc(C(=S)NCC2CCCO2)cc1` (stereo unspecified) in the list: 95, 86, 110, 0
`CC(C)(C)c1ccc(OCC(=O)NC(Cc2c[nH]c3ccccc23)C(=O)O)cc1` (stereo unspecified) in the list: 104, 102, 104, -10

Ordered by the number under GIV-Gai inh (ascending): 3 of the compounds above.
Structure	Sa growth inh second temp	GIV-Gai inh
Cc1ccc(NC(=O)C(Cc2ccccc2)NS(=O)(=O)c2ccc3c(c2)oc(=O)n3C)c(Cl)c1 (stereo unspecified)	94	95
COC(=O)c1sccc1NS(=O)(=O)c1ccc(C(=O)OC)n1C	88	102
CC(=O)c1ccc(Nc2cc(C)nc3nc(Cc4ccccc4)nn23)cc1	82	104

New compounds follow.
SMILES	Sa growth inh	Sa growth inh second temp	GIV-Gai inh	HCMV NEC inh
O=C(OC1CCCCC1)c1nsc(Cl)c1Cl	129	92	102	-7
CC(C(=O)NCC1CCCCC1)N1CCN(S(=O)(=O)c2ccccc2F)CC1 (stereo unspecified)	76	83	·	-24
NC(=O)c1ccccc1NC(=O)CC(c1ccccc1)c1ccccc1	109	91	·	-22
Cc1ccc(NC(=S)Nc2ccccc2C)c(C)c1	100	87	104	-12
CCOC(=O)CNc1nnc(SCC(=O)OCC)[nH]c1=O	106	89	94	-38
NC1=NC(=O)C(CC(=S)Nc2ccc(N3CCCCC3)cc2)S1 (stereo unspecified)	83	90	·	5
Cc1nnc(SCC(=O)NCc2ccccc2F)c2nn(-c3ccc(Cl)cc3)c(C)c12	115	97	113	·
CC1(C(=O)NC2CCCC2)Cn2c(c(-n3cccc3)c3ccccc32)C(=O)N1Cc1ccccn1 (stereo unspecified)	·	·	104	-17
Cc1ccc(CN(C)C(=O)CCN2c3ccccc3Sc3ccccc32)o1	82	90	·	-18
COc1ccc2oc(COc3ccccc3)c(C(=O)O)c2c1	137	100	111	5
COC(=O)c1ccc(-c2ccco2)n1Cc1ccccc1	84	72	136	·
COc1cccc(C2c3c(n[nH]c3C)C(=O)N2c2ccc(Br)cc2)c1 (stereo unspecified)	·	·	100	-22
CC(=O)OC(C(=O)Nc1nccs1)c1ccccc1 (stereo unspecified)	102	89	104	-6
COC1=C(OC)C(=O)C(CCCCCCCCCCO)=C(C)C1=O	84&71	67&54	99	-35&2&-17
CN(C)c1nc(N)nc(N(c2ccccc2)c2ccccc2)n1	91	91	99	-12
O=C(CC(=O)Nn1cnnc1)Nn1cnnc1	84	90	104	-14
O=C(Nc1cccc(NC(=O)c2ccco2)c1)c1ccc2c(c1)OCCO2	·	·	103	-13
CC(C)NC(=O)CCc1c[nH]c2ccccc12	100	93	·	-15
COc1cc(-c2nc3ccccc3c(=O)n2NC(=O)c2ccc(Cl)cc2)cc(OC)c1OC	·	·	105	-17
O=C(Nc1nccs1)c1ccccc1-c1ccccc1	126	89	·	0
Cn1c(=O)c(C#N)c(-c2cccs2)n2cnnc12	105	71	104	-43
CC(C)(C)OC(=O)N1CCC(C(N)=O)CC1	111	90	100	-8
COc1cccc(-n2c(=O)c3sccc3n(Cc3cc(=O)n4cc(Cl)ccc4n3)c2=O)c1	99	88	107	-7
Cc1cc(SCCC(=O)O)nc2c(C)cccc12	106	76	·	-10
O=C(O)c1cccc(OCc2cscn2)c1	96	89	·	-9
O=C(NN1CCOCC1)c1cccc2ccccc12	102	90	·	-44
CCCc1c(C(=O)NNc2ccccc2OC)cnn1-c1ccccc1	87	77	101	-16
O=C1CSC2(CCCCC2)N1c1ccc(Cl)cc1	95	94	104	0
O=C(CSc1oc(-c2ccco2)nc1S(=O)(=O)c1ccccc1)NCC1CCCO1 (stereo unspecified)	104	100	109	-10
O=C(OCCSc1ccccn1)c1ccccc1	118	88	108	-2
COc1ccc(OC)c(NC(=O)CSc2nnc(C3CCCCC3)o2)c1	85	75	102	-30
Cc1cccc(NS(=O)(=O)c2ccc3c(c2)C(C)(C)C(=O)N3C)c1	89	96	106	·
Oc1c(C=NC2CCCCC2)[nH]c2ccc(Br)c(Cl)c12	93	58	-64*	·
CCOc1ccc(N(Cc2nc3nc(C)cc(C)n3n2)C(=O)COc2ccccc2)cc1	·	·	112	10
NC(=O)c1oc2ccccc2c1NC(=O)c1ccccc1	124	82	105	-2
O=C(ON=C(c1cccs1)c1cccs1)c1ccc(Cl)cc1	93	89	100	-31
CCOc1ccc(CN(CCO)CCO)cc1C(=O)OC	100	97	105	-6
COc1cccc(Cn2nc(SC)c(S(=O)(=O)c3ccccc3)c2N(C(C)=O)C(C)=O)c1	95	92	105	-17
CCC(C(=O)NC(C)C)n1c2ccccc2c2nc(=O)cc(C)n21 (stereo unspecified)	119	96	97	·
Cc1cc(C)c2nc(C)cc(C(=O)NC3CC3)c2c1	·	·	110	-48
O=C(Cc1csc(NC(=O)C2CC2)n1)NCc1ccncc1	·	·	103	-8
CCn1c(/N=C/c2ccccc2Cl)nc2ccccc21	88	87	104	72*
CCOc1ccc(C(=O)OCc2cc(=O)n3nc(C(C)C)sc3n2)cc1	93	87	101	·
O=C(COC(=O)Cc1ccc(Cl)cc1)Nc1ccccc1	114	94	·	-18
CCOc1ccc(CC(=O)Nc2c(C(=O)c3ccccc3)oc3ccc(OC)cc23)cc1OCC	113	82	102	-12
CC(Nc1nncc(=O)[nH]1)c1ccccc1 (stereo unspecified)	75	48	106	·
CCOC(=O)c1c(C)n(CC)c2ccc(O)cc12	68	98	·	-6
Cc1ccc(CNC(=O)CN2C(=O)C3CCCCN3c3ccc(C(=O)N(C)C)cc32)cc1 (stereo unspecified)	111	83	100	·
COc1ccc(C2=NN(C(C)=O)C(c3ccccc3OC)C2)cc1OC (stereo unspecified)	·	·	101	-15
COc1ccc(NC(=O)CSc2oc(-c3ccco3)nc2S(=O)(=O)c2ccc(Br)cc2)c(OC)c1	89	92	99	-7
COc1cccc(-c2nn(C)c3sc(C(=O)NCc4ccc(C)cc4)cc23)c1	101	82	109	-17
CCc1noc(C)c1C(=O)OCC(=O)c1ccccc1OC	94	90	·	-8
CN(C)CN1C(=O)C(=Nc2ccc3ccccc3c2)c2ccccc21	92	65	107	·
O=C(O)Cn1cc(C(F)(F)F)ccc1=O	106	93	·	-6

Entries listed so far marked active in GIV-Gai inh.
smiles | Sa growth inh second temp | GIV-Gai inh
Oc1c(C=NC2CCCCC2)[nH]c2ccc(Br)c(Cl)c12 | 58 | -64*
